Screens: PubChem, Broad Institute
Yeast UUG start = modulators of start codon recognition fidelity in yeast. activity score, % at 18.7 µM. S. cerevisiae UUG-firefly luciferase reporter, luminescence/redox ratio. actives 0.13% (n = 350,000);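 active means replicate mean at a twofold rise or more, about +100% in these data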;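 further: firefly luciferase made from a UUG start codon reports start codon fidelity; reporter light over untreated wells divided by growth signal over untreated wells; some hits fall short of that in this replicate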
The depositor's hits bear a star.

Molecule | Yeast UUG start
CO[C@@H]1CN(C)C(=O)c2ccc(NC(=O)Nc3c(C)noc3C)cc2OC[C@@H](C)N(CCC(F)(F)F)C[C@H]1C | -6
C/C=C/c1ccc([C@@H]2[C@H](CO)N(C(C)=O)[C@H]2CN(C(=O)COC)C(C)C)cc1 | -1
O=C(C1CC1)N1CC[C@@H]2[C@@H](CO)Nc3ccc(Br)cc3[C@@H]21 | -8
C[C@@H]1CN([C@@H](C)CO)C(=O)Cc2cc(NC(=O)CCCN(C)C)ccc2O[C@@H]1CN(C)S(=O)(=O)c1ccccc1 | -12
C[C@@H]1CN([C@@H](C)CO)C(=O)c2cccc(NC(=O)c3ccc(-c4nccs4)cc3)c2O[C@@H]1CN(C)C(=O)Nc1ccc2c(c1)OCO2 | -6
COc1ccc(C(=O)N2C[C@H]3[C@@H](c4ccccc42)[C@H](CO)N3C(=O)Cc2ccccn2)cc1 | -1
C[C@@H]1CN([C@@H](C)CO)C(=O)Cc2cc(NS(=O)(=O)c3ccc(F)cc3)ccc2O[C@@H]1CN(C)C(=O)NC1CCCCC1 | 18
Cc1noc(C)c1S(=O)(=O)Nc1cccc2c1O[C@@H](CN(C)S(=O)(=O)c1cn(C)cn1)[C@@H](C)CN([C@@H](C)CO)C2=O | 6
CC(C)NC(=O)N1C[C@@H]2[C@H](c3ccccc31)[C@@H](CO)N2C(=O)C1CCCC1 | -10
C[C@@H]1CN([C@@H](C)CO)C(=O)c2cccc(NC(=O)C3CCCCC3)c2O[C@H]1CN(C)Cc1ccc(Cl)c(Cl)c1 | -9
C[C@@H]1CN([C@@H](C)CO)C(=O)c2cccc(NC(=O)c3ccncc3)c2O[C@H]1CN(C)Cc1ccc(C(=O)O)cc1 | -15
COc1ccccc1-c1ccc([C@H]2[C@H]3CN(C(=O)c4cccnc4)CCCCN3[C@H]2CO)cc1 | 1
CC(=O)NC[C@@H]1[C@@H](c2ccc(-c3ccccc3)cc2)[C@H](CO)N1C(=O)C1CC1 | 4
CO[C@@H]1CN(C)C(=O)c2ccc(NC(=O)c3cnccn3)cc2OC[C@H](C)N(C(C)=O)C[C@H]1C | 3
CO[C@@H]1CN(C)C(=O)c2cc(NC(C)=O)ccc2OC[C@@H](C)N(CCc2ccccc2)C[C@H]1C | 9
CO[C@H]1CN(C)C(=O)c2cc(NC(=O)c3nc4ccccc4s3)ccc2OC[C@H](C)NC[C@@H]1C | 4

The final three records of the section above lead into the next.
Molecule | Yeast UUG start
CO[C@@H]1CN(C)C(=O)c2ccc(NC(=O)c3cnccn3)cc2OC[C@H](C)N(C(C)=O)C[C@H]1C | 3
CO[C@@H]1CN(C)C(=O)c2cc(NC(C)=O)ccc2OC[C@@H](C)N(CCc2ccccc2)C[C@H]1C | 9
CO[C@H]1CN(C)C(=O)c2cc(NC(=O)c3nc4ccccc4s3)ccc2OC[C@H](C)NC[C@@H]1C | 4
CN1C(=O)c2cc(NC(=O)c3ccccc3)ccc2OC[C@@H]2O[C@H](CC(=O)NC3CCCC3)CC[C@H]21 | 14
CCC(=O)N1C[C@H](C)[C@@H](OC)CN(C)C(=O)c2cc(NC(=O)COC)ccc2OC[C@H]1C | 2
CO[C@H]1CN(C)C(=O)c2ccc(NC(C)=O)cc2OC[C@@H](C)N(C(=O)CN2CCOCC2)C[C@@H]1C | 2
C[C@@H]1CN([C@@H](C)CO)C(=O)c2cc(NC(=O)c3ccncc3)ccc2O[C@H]1CN(C)C | 2
CO[C@@H]1CN(C)C(=O)c2cc(NC(=O)C3CCCC3)ccc2OC[C@@H](C)N(C)C[C@@H]1C | 13
COCC(=O)NC[C@H]1N[C@H](CO)[C@@H]1c1ccc(-c2ccccc2F)cc1 | 4
Cc1cccc(-c2ccc([C@@H]3[C@@H](CO)N4CCCCN(S(=O)(=O)c5cccs5)C[C@@H]34)cc2)c1 | -10
C[C@@H]1CN([C@@H](C)CO)C(=O)Cc2cc(NC(=O)C3CCCCC3)ccc2O[C@@H]1CN(C)C(=O)NC1CCCCC1 | -3
CN1c2ccc(-c3ccccc3)cc2[C@H]2[C@H](CCN2C(=O)CN2CCOCC2)[C@H]1CO | -10
COCC(=O)N(C[C@H]1N[C@H](CO)[C@H]1c1ccc(-c2cccnc2)cc1)C(C)C | 17
CC=Cc1ccc2n(c1=O)C[C@@H]1[C@@H](CO)[C@H](C(=O)NCCC)[C@H]2N1C(=O)C1CC1 (mixture of isomers) | 3
O=C(Cc1ccccn1)N1CC[C@@H]2[C@H](CO)Nc3ccc(-c4cccc(F)c4)cc3[C@@H]21 | -10
O=C(C[C@@H]1CC[C@@H]2[C@H](COC[C@H](O)CN2C(=O)Nc2ccccc2)O1)NCc1ccccc1F | -8
CC(C)NC(=O)N1C[C@@H]2[C@H](c3ccccc31)[C@H](CO)N2Cc1ccccn1 | -39
O=C(Cc1ccccc1)N1CC[C@@H]2[C@@H](CO)Nc3ccc(-c4cccc(F)c4)cc3[C@@H]21 | -5
C[C@@H](O)C#Cc1ccc([C@@H]2[C@@H](CO)N3CCCCN(S(=O)(=O)Cc4ccccc4)C[C@@H]23)cc1 | -4
Cc1ccccc1-c1ccc([C@@H]2[C@@H](CO)N3CCCCN(S(=O)(=O)c4cn(C)cn4)C[C@H]23)cc1 | 5
Cc1cc(C(=O)Nc2cccc3c2O[C@@H](CN(C)S(=O)(=O)c2cn(C)cn2)[C@@H](C)CN([C@H](C)CO)C3=O)n(C)n1 | 4
N#Cc1ccc(-c2ccc3c(c2)[C@H]2[C@H](CCN2C(=O)CN2CCOCC2)[C@@H](CO)N3)cc1 | -9
C[C@H](NC(=O)C[C@@H]1C[C@H]2c3cc(NC(=O)C4CCC4)ccc3O[C@H]2[C@@H](CO)O1)c1ccccc1 | 7
C[C@H]1CN([C@@H](C)CO)C(=O)c2cc(NS(C)(=O)=O)ccc2O[C@@H]1CN(C)S(=O)(=O)c1cccs1 | -23
CO[C@H]1CN(C)C(=O)c2ccc(NC(=O)C3CC3)cc2OC[C@@H](C)N(C)C[C@@H]1C | 12
CO[C@@H]1CN(C)C(=O)c2ccc(NC(=O)c3ccccc3)cc2OC[C@H](C)N(C(C)=O)C[C@H]1C | 5
O=C(Nc1ccccc1)[C@H]1[C@H](CO)[C@H]2Cn3c(cccc3=O)[C@H]2N1CC1CC1 | 22

Of the compounds above, these contain fluorine:
Molecule | Yeast UUG start
CO[C@@H]1CN(C)C(=O)c2ccc(NC(=O)Nc3c(C)noc3C)cc2OC[C@@H](C)N(CCC(F)(F)F)C[C@H]1C | -6
C[C@@H]1CN([C@@H](C)CO)C(=O)Cc2cc(NS(=O)(=O)c3ccc(F)cc3)ccc2O[C@@H]1CN(C)C(=O)NC1CCCCC1 | 18
COCC(=O)NC[C@H]1N[C@H](CO)[C@@H]1c1ccc(-c2ccccc2F)cc1 | 4
O=C(Cc1ccccn1)N1CC[C@@H]2[C@H](CO)Nc3ccc(-c4cccc(F)c4)cc3[C@@H]21 | -10
O=C(C[C@@H]1CC[C@@H]2[C@H](COC[C@H](O)CN2C(=O)Nc2ccccc2)O1)NCc1ccccc1F | -8
O=C(Cc1ccccc1)N1CC[C@@H]2[C@@H](CO)Nc3ccc(-c4cccc(F)c4)cc3[C@@H]21 | -5

(next part)
Molecule | Yeast UUG start
CN(C)C(=O)c1ccc(-c2ccc([C@@H]3[C@H]4CN(C(=O)C5CCC5)CCCCN4[C@H]3CO)cc2)cc1 | 0
C[C@@H]1CN([C@@H](C)CO)C(=O)c2cc(NC(=O)Cc3ccccc3)ccc2O[C@H]1CN(C)C | -7
O=C(C[C@H]1CC[C@@H]2[C@H](COC[C@@H](O)CN2S(=O)(=O)c2cccc(Cl)c2)O1)NC1CCCC1 | 11
C/C=C/c1ccc([C@H]2[C@H](CO)N(C(=O)NCCC)[C@H]2CNC(=O)C2CC2)cc1 | -8
C[C@@H]1CN([C@H](C)CO)C(=O)CCCn2nncc2CO[C@H]1CN(C)CC1CCCCC1 | 14
CC(C)NC(=O)N1C[C@@H]2[C@H](c3ccccc31)[C@H](CO)N2C(=O)Nc1ccccc1 | 19
CCCC#Cc1ccc([C@@H]2[C@H](CO)N3CCCCN(S(=O)(=O)CC)C[C@@H]23)cc1 | 4
COCC#Cc1ccc([C@H]2[C@@H](CO)N3CCCCN(C(=O)Nc4cc(F)ccc4F)C[C@@H]23)cc1 | 8
C[C@H]1CN([C@@H](C)CO)C(=O)c2cccc(NC(=O)c3ccncc3)c2O[C@@H]1CN(C)S(=O)(=O)c1ccc(F)cc1 | -12
N#Cc1ccc(-c2ccc3c(c2)[C@H]2[C@H](CCN2C(=O)C2CCCCC2)[C@@H](CO)N3)cc1 | 2
COc1ccc(C#Cc2ccc3c(c2)[C@H]2[C@H](CCN2C(=O)CC2CC2)[C@H](CO)N3)cc1 | 4
CCC(=O)Nc1ccc2c(c1)OC[C@H](C)N(C(=O)c1cccnc1)C[C@@H](C)[C@H](OC)CN(C)C2=O | 21
COCC(=O)N1C[C@H]2[C@@H](c3ccccc31)[C@@H](CO)N2C(=O)c1ccncc1 | 2
CC=Cc1ccc2n(c1=O)C[C@H]1[C@H](CO)[C@@H](C(=O)NCC3CCCCC3)[C@@H]2N1C(=O)CC (mixture of isomers) | 8
CO[C@H]1CN(C)C(=O)c2ccc(NC(=O)Nc3ccccc3F)cc2OC[C@@H](C)N(Cc2ccccc2C(=O)O)C[C@@H]1C | 6
COCC(=O)Nc1ccc2c(c1)OC[C@@H](C)N(Cc1cc(F)ccc1F)C[C@@H](C)[C@H](OC)CN(C)C2=O | 15
C[C@@H]1CN([C@@H](C)CO)C(=O)c2cc(NC(=O)Nc3ccc(C(F)(F)F)cc3)ccc2O[C@@H]1CN(C)C(=O)NC1CCCCC1 | -4
C[C@H]1CN([C@@H](C)CO)C(=O)Cc2cc(NC(=O)Nc3cccc4ccccc34)ccc2O[C@H]1CN(C)Cc1ccc2c(c1)OCO2 | 4
CO[C@@H]1CN(C)C(=O)c2ccc(NC(=O)C3CCC3)cc2OC[C@H](C)N(Cc2cccnc2)C[C@@H]1C | 2
COc1ccc(CN(C)C[C@H]2Oc3ccc(NS(=O)(=O)c4ccc(C)cc4)cc3C(=O)N([C@H](C)CO)C[C@H]2C)cc1 | 2
Cc1cccc(-c2ccc([C@H]3[C@H](CO)N4CCCCN(CCC(F)(F)F)C[C@@H]34)cc2)c1 | -4
Cc1noc(C)c1S(=O)(=O)Nc1cccc2c1O[C@H](CN(C)S(=O)(=O)c1cn(C)cn1)[C@H](C)CN([C@@H](C)CO)C2=O | -6
O=C(CC(F)(F)F)N1C[C@@H]2[C@H](c3ccccc31)[C@@H](CO)N2C(=O)Cc1cccnc1 | 22
CN(C)C(=O)c1cccc(-c2ccc([C@H]3[C@H](CO)N4CCCCN(Cc5cccnc5)C[C@@H]34)cc2)c1 | -10
COCC(=O)Nc1ccc2c(c1)C(=O)N(C)C[C@H](OC)[C@H](C)CN(Cc1ccccc1OC)[C@H](C)CO2 | 3
C[C@@H]1CN([C@@H](C)CO)C(=O)c2cc(NC(=O)NC3CCCCC3)ccc2O[C@@H]1CN(C)S(=O)(=O)c1ccccc1 | -8
O=C(C[C@@H]1C[C@H]2c3cc(NC(=O)C4CCOCC4)ccc3O[C@H]2[C@H](CO)O1)NCCc1ccccc1 | 4
CO[C@H]1CN(C)C(=O)c2cc(NC(=O)Nc3ccccc3F)ccc2OC[C@@H](C)N(Cc2ccccc2C(=O)O)C[C@H]1C | -5
CC1C=NC(S(=O)(=O)N2CC[C@H]3[C@@H](CO)N(C)c4ccc(-c5ccc(F)cc5)cc4[C@H]32)=N1 (some centres not stated) | 2
O=C(Nc1ccccc1F)N1CCCCN2[C@H](CO)[C@@H](c3ccc(C#Cc4ccccc4)cc3)[C@H]2C1 | 8
C[C@H](CO)N1C[C@H](C)[C@H](CN(C)S(=O)(=O)c2ccc(C#N)cc2)Oc2ncc(C#CC(C)(C)O)cc2C1=O | 19
CN(C)C(=O)[C@@H]1[C@@H](CO)[C@@H]2Cn3c(ccc(C4=CCCCC4)c3=O)[C@@H]2N1C(=O)c1ccccc1F | 2
C[C@H](CO)N1C[C@H](C)[C@@H](CN(C)Cc2ccc(-c3ccccc3)cc2)Oc2ccc(NS(C)(=O)=O)cc2C1=O | 1
CCCNC(=O)[C@H]1[C@H](CO)[C@H]2Cn3c(ccc(-c4cncnc4)c3=O)[C@H]2N1C(=O)c1ccccc1F | 18
CCCNC(=O)NC[C@@H]1[C@@H](c2ccc(C3=CCCCC3)cc2)[C@H](CO)N1C(C)=O | 0
CO[C@@H]1CN(C)C(=O)c2cc(NS(=O)(=O)CC(F)(F)F)ccc2OC[C@H](C)N(Cc2ccccn2)C[C@@H]1C | -3
C[C@@H]1CN([C@H](C)CO)C(=O)c2cc(NC(=O)C3CC3)ccc2O[C@@H]1CN(C)Cc1ccc(-c2ccccc2)cc1 | 2
CCC(=O)N1CC[C@@H]2[C@H](CO)Nc3ccc(C#Cc4ccccc4F)cc3[C@@H]21 | -11
OC[C@H]1Nc2ccc(C#Cc3ccccc3)cc2[C@@H]2[C@H]1CCN2Cc1nccs1 | -19
C[C@H]1CN([C@@H](C)CO)C(=O)Cc2cc(NC(=O)c3ccncc3)ccc2O[C@@H]1CN(C)Cc1ccc(Oc2ccccc2)cc1 | 7
Cc1ccc(S(=O)(=O)Nc2ccc3c(c2)C(=O)N([C@@H](C)CO)C[C@@H](C)[C@@H](CN(C)C(=O)NC2CCCCC2)O3)cc1 | 13
COc1ccc(CN(C)C[C@H]2Oc3ccc(NC(=O)CCC(F)(F)F)cc3C(=O)N([C@H](C)CO)C[C@H]2C)cc1 | 12
C[C@@H]1CN([C@H](C)CO)C(=O)Cc2cc(NC(=O)NC3CCCCC3)ccc2O[C@@H]1CN(C)S(=O)(=O)c1ccccc1 | 22

Some of the compounds tested; count on the stated rates, not on these rows.
